Screens: PubChem BioAssay, Fisher Drug Discovery Resource Center
NPYLR7 agonist: mosquito NPYLR7 agonism; activation, % at 10 µM; hit rate 0.15% among 270,000; HEK293T NPYLR7/Galpha15, GCaMP6s calcium fluorescence; in the data active means activation above about 40%;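 further: 0% = vehicle and 100% = reference agonist at the receptor; some compounds past the cut are filed as inactive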
NPYLR7 agonist max-min: also measured in NPYLR7 agonist; calls as there; activation, %; measured here: Max-Min RFU normalised activation; some inactives read as strong as hits;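 span of the calcium signal over five minutes; 0% = vehicle and 100% = native peptide agonist; compound fluorescence can raise it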
Numbers without * were called inactive; & = joins results of further samples. Only part of the results is shown; count on the stated rates, not on these rows.

| Molecule | NPYLR7 agonist max-min | NPYLR7 agonist |
| --- | --- | --- |
| CCc1nc2ccc(C(=O)Nc3ccc4c(c3)CCN4C(C)=O)cn2c1N(C)C(=O)COc1ccccc1 | -10.7 | -5.8 |
| O=C(N[C@H]1CCCCNC1=O)c1ccc(N2CCC(NCC3(N4CCOCC4)CCCC3)CC2)cc1 | 1.6 | 11.4 |
| COc1ccc(S(=O)(=O)N(CC(=O)N2CCc3sccc3C2COc2ccc(Cl)cc2)C(C)C)cc1 (stereo not drawn) | 18.8 | 18.6 |
| Cn1c(=O)c2[nH]c(N3CCCCCC3)nc2n(C)c1=O | 1.3 | 4.1 |
| CCN(CCN1CCCC1)C(=O)c1sccc1Cl | -3.9 | -2.8 |
| CCC(C)c1ccccc1NC(=O)C1=NC=CN2CCS(=O)(=O)N=C12 (stereo not drawn) | 2.0 | 8.0 |
| Cc1nc(-c2ccc(CNC(=O)c3ccc(S(=O)(=O)N4CC(C)OC(C)C4)cc3)o2)cs1 (stereo not drawn) | 0.0 | -3.4 |
| CCCCCCCC[n+]1cccc2ccccc21 | 5.7 | 6.3 |
| O=C1C2C(C(=O)N1/N=C/c1ccc(I)o1)C1C=CC2C12CC2 (stereo not drawn) | 7.6 | -0.4 |
| Cc1oc2nc[nH]c(=O)c2c1C(=O)N(C)Cc1cccc(C(F)(F)F)c1 | 0.4&8.2 | 0.6&1.0 |
| O=C(O)c1cc(-c2ccccc2O)nc2nc(-c3ccccc3)[nH]c12 | -2.6 | -2.3 |
| N#Cc1cccc(OCCN2CCC(C(=O)N3CCOCC3)CC2)c1 | 6.4 | -1.2 |
| COc1ccc(-c2cn3c(C)c(C(=O)NC4CCCCC4)sc3n2)cc1 | -0.1 | 4.8 |
| CC(=O)c1cccc(NC(=O)CN2C(=O)C(C)Oc3ccccc32)c1 (stereo not drawn) | 3.1 | 9.9 |
| N#Cc1ccc(CS(=O)CCOc2ccc(Cl)cc2Br)cc1 (stereo not drawn) | -1.4 | 1.3 |
| CCOc1ccc(CN(C)Cn2[nH]c(C(C)C)nc2=S)cc1OC | 1.5 | 6.1 |
| COc1ccc(CN2CCC2(C)C(=O)NCCCN2CCCC2=O)c2ccccc12 (stereo not drawn) | -8.5 | -4.0 |
| CCn1c(CC2CCN(C/C=C/c3ccc(F)cc3)CC2)nn(C)c1=O | 3.1 | 4.0 |
| Nc1nc(N)nc(CN2CCCC2c2nc3ccccc3s2)n1 (stereo not drawn) | 3.0 | 1.8 |
| CCCCCCCCn1ncc(O)c(Cl)c1=O | 2.7 | 3.4 |
| Cc1cccc(C)c1NC(=O)N=C1CCCN1C | 3.2&-21.2 | 8.0&-13.4 |
| CCC1(CC)Cc2ccccc2-c2nc(NN)n(Cc3ccccc3)c(=O)c21 | 0.7 | 3.6 |
| CCc1cccc(CC)c1-n1c(CNC(=O)c2ccco2)nnc1SCC(=O)Nc1nc2ccccc2s1 | -7.2 | -7.3 |
| CC1(C)Cc2nc(Cl)c(C#N)cc2CO1 | 13.1 | 10.5 |
| COc1cc(-c2cnc(N)c(N3CCN(C)CC3)n2)cc(OC)c1OC | -9.7 | -2.8 |
| NC(=O)c1ccc(NC(=O)NC2CCCC2)c(F)c1 | -2.8 | -0.3 |
| CCOC(=O)CC1CCCCN1C(=O)c1cn(C/C=C/c2ccccc2)nn1 (stereo not drawn) | -15.3 | -2.4 |
| CCn1c(SCC(=O)Nc2ccc([N+](=O)[O-])cc2)nnc1-c1ccco1 | -10.4 | -4.8 |
| CC1(C(=O)NCC(F)(F)F)CCN1C(=O)Cc1ccc(-c2ccccc2)cc1 (stereo not drawn) | 1.1 | 2.0 |
| COc1ccc(N2CCN(CCc3c[nH]c4ccc(NC(=O)c5ccccc5OC(F)(F)F)cc34)CC2)cc1 | 2.2 | 4.5 |

The final 2 compounds of the section before lead into the next:
| Molecule | NPYLR7 agonist max-min | NPYLR7 agonist |
| --- | --- | --- |
| CC1(C(=O)NCC(F)(F)F)CCN1C(=O)Cc1ccc(-c2ccccc2)cc1 (stereo not drawn) | 1.1 | 2.0 |
| COc1ccc(N2CCN(CCc3c[nH]c4ccc(NC(=O)c5ccccc5OC(F)(F)F)cc34)CC2)cc1 | 2.2 | 4.5 |
| CC(C)c1ccc(NC(=O)c2nn(CCOc3ccc(F)cc3)c3ccccc23)cc1 | 17.1 | 13.9 |
| COc1ccc(C2=NN(C(=O)CN3CCCC3)C(c3ccccc3C)C2)cc1 (stereo not drawn) | 0.0 | -3.4 |
| C=CCN(CC(=O)N1CCc2sccc2C1COc1ccccc1OC)CC(O)COCC(C)C (stereo not drawn) | 4.7 | 5.0 |
| Cc1ccc(-n2ncc3c(C)nnc(SCC(=O)Nc4ccccc4F)c32)cc1C | -14.1 | -8.5 |
| CCOC(=O)c1c(C)n(C(=O)c2ccco2)c(=O)n1C(=O)c1ccco1 | 4.5 | 11.5 |
| COCCNC(=O)[C@@]1(OCc2cccc(Cl)c2)CC(OCc2ccc(F)cc2)[C@H](O)[C@H](O)C1 (stereo partly drawn) | 7.9 | 22.2 |
| O=C(CSc1nc(=O)n2ccccc2n1)NCc1ccccc1Cl | 1.2 | 7.9 |
| CC1C(=O)SC2(CCCCC2)N1c1ccc(Cl)cc1 (stereo not drawn) | -2.1 | -1.2 |
| Cc1ccn2c(=O)c(C(=O)NC(C)c3ccccc3)c(O)nc2c1 (stereo not drawn) | 24.8 | -2.3 |
| O=C(NCCc1nc(-c2ccccn2)cs1)C1CC=CCC1 (stereo not drawn) | -3.9 | -4.9 |
| Cc1ccn2c(=O)c(NC(=O)COc3ccccc3)c(C)nc2c1 | -6.7 | -7.4 |
| Cc1cc(C)n(-c2cc(NCCNC(=O)Nc3cccc(F)c3C)ncn2)n1 | -17.5 | -11.5 |
| COc1ccccc1N1CCN(Cc2cc(=O)c(OCC(=O)NC3CCCC3)co2)CC1 | 1.9 | 3.7 |
| COc1ccc(NC(=O)NCCC(=O)OCc2cc(C)no2)cc1 | -1.0 | 0.8 |
| CCCOc1cccn2c(N(C)C(=O)OCC)c(CC)nc12 | -6.5 | 7.3 |
| Cc1cc(C)nc(SCc2cc(=O)c(OC(=O)c3ccc(C(F)(F)F)cc3)co2)n1 | -4.3 | -12.6 |
| COC(=O)C[C@@]1(C(=O)OC)N[C@H](c2ccc(O)cc2)[C@@H]2C(=O)N(C)C(=O)[C@@H]21 | 4.5 | 13.6 |
| Cc1ccc(NC(=O)N2CCN(C(=O)c3cc4ccsc4n3CCCc3ccccc3)CC2C)cc1 (stereo not drawn) | 4.8 | 0.4 |
| Cc1c(C)c(C)c(S(=O)(=O)N2CCN(C(=O)CNC(=O)C3CC3C)CC2)c(C)c1C (stereo not drawn) | -4.5 | -4.1 |
| Cc1cc(C)c(C)c(OCc2nc(CN(C(=O)c3cccc(Br)c3)C3CC3)cs2)c1 | 17.5 | 14.7 |
| CNC(=O)CSc1nc2c(cnn2Cc2ccc(F)cc2)c(=O)[nH]1 | -1.8 | 0.1 |
| CCn1c(=O)c(C(=O)NCc2cccnc2)nn(-c2cccc(C)c2)c1=O | -3.2 | -6.0 |
| NC(=O)C1CCN(C(=O)c2cc(S(=O)(=O)N3CCc4ccccc4C3)ccc2Cl)CC1 | 5.7 | 6.2 |
| CN1C(=S)N(c2ccc(Oc3ccccc3)cc2)C(=O)/C1=C\c1ccccc1OCC(=O)O | 20.9 | 23.4 |
| CC1(C)Cc2c(cnn2-c2cccc(F)c2)C(NCc2ccc3c(c2)CCO3)C1 (stereo not drawn) | 0.1 | 0.9 |
| O=C(c1cc2n(n1)CCN(Cc1c(F)cccc1Cl)C2=O)N1CCN(c2cccc(C(F)(F)F)c2)CC1 | 1.2 | 10.1 |
| COc1ccc(C2CC2C(=O)N(C)c2cc(C(C)C)[nH]n2)cc1 (stereo not drawn) | 10.8 | 9.8 |
| O=C(c1cccn1Cc1cccs1)N1CCC(c2ccccc2)C1 (stereo not drawn) | 2.0 | 1.8 |
| Cc1ccccc1C(=O)NC(C(N)=O)P(=O)(OC(C)C)OC(C)C (stereo not drawn) | 16.5 | -1.6 |
| COc1cc2c(cc1CN1CCCC(c3ccn[nH]3)C1)CCC2 (stereo not drawn) | -2.0 | 8.0 |

Exported with two lines to a compound: entries from further up
Fields – NPYLR7 agonist max-min | NPYLR7 agonist
> CCn1c(=O)c(C(=O)NCc2cccnc2)nn(-c2cccc(C)c2)c1=O
  -3.2 | -6.0
> NC(=O)C1CCN(C(=O)c2cc(S(=O)(=O)N3CCc4ccccc4C3)ccc2Cl)CC1
  5.7 | 6.2
> CN1C(=S)N(c2ccc(Oc3ccccc3)cc2)C(=O)/C1=C\c1ccccc1OCC(=O)O
  20.9 | 23.4
> CC1(C)Cc2c(cnn2-c2cccc(F)c2)C(NCc2ccc3c(c2)CCO3)C1 (stereo not drawn)
  0.1 | 0.9

Remaining list, next part
| Molecule | NPYLR7 agonist max-min | NPYLR7 agonist |
| --- | --- | --- |
| COCCn1c(C)cc(O)c(C(c2ccc(Cl)cc2)N2CCN(c3ccccc3F)CC2)c1=O (stereo not drawn) | 4.1 | 12.0 |
| O=C(NCCC1CN(Cc2cccnc2)CCO1)c1ccsc1 (stereo not drawn) | 16.7 | 21.1 |
| OC1(C(F)(F)F)NN=C2C=Cc3ccccc3N21 (stereo not drawn) | -7.9 | -4.2 |
| CCN(CC)C(=O)C(NC(=O)c1ccccc1NC(=O)C(C)(C)C)C(C)C (stereo not drawn) | -2.6 | 1.8 |
| Cc1sc2nc(CSc3nnc(-c4cccs4)n3C3CC3)[nH]c(=O)c2c1C | 9.6 | 9.5 |
| O=C(NC1(C(F)(F)F)C(=O)Nc2c1c(=O)[nH]c(=O)n2-c1ccc(Cl)cc1)c1ccco1 (stereo not drawn) | -8.6 | -3.7 |
| CCN1CCc2nc(NC(=O)CNC(=O)COc3ccccc3)sc2C1 | -9.3 | -5.7 |
| CCCCCCCC(=O)N(Cc1ccco1)C(C)C(=O)c1c(C)c(C(=O)OC)n(C)c1C (stereo not drawn) | -3.9 | -6.3 |
| Cc1ccc2c(c1)CCCN2C(=O)CN(C)C(C)c1ccon1 (stereo not drawn) | 0.7 | 2.9 |
| Cc1cc(C)n(C2=NS(=O)(=O)c3ccccc32)n1 | 7.2 | 9.8 |
| O=C(CCl)Nc1cc(C2CC2)nn1-c1ccccc1 | 16.8 | 1.0 |
| COc1ccc(CCN(Cc2ccc(C)o2)C(=O)CN(CC2CCCO2)C(=O)c2cccc(Br)c2)cc1OC (stereo not drawn) | 20.7 | 3.0 |
| O=C1CCCN1CC1CCN(C(=O)c2ccc(N3CC=CCC3)nc2)CC1 | 20.5 | 27.2 |
| CN(C)c1ccc(C(F)(F)F)cc1NC(=O)NC1CCCCC1O (stereo not drawn) | 11.9 | 12.3 |
| O=C(c1ccc(Cl)cc1)N1CCCC(OCc2ccccc2F)C1 (stereo not drawn) | -3.8 | -8.9 |
| COc1ccc(Br)cc1S(=O)(=O)NCc1ccccc1Cl | 9.2 | 2.0 |
| C#Cc1cccc(N(CC)S(=O)(=O)c2ccc(C(=O)O)cc2)c1 | 16.0 | 0.4 |
| c1ccc2c(c1)CCOC2Cn1ccnc1-c1cccc2nonc12 (stereo not drawn) | -5.8 | 1.0 |
| CCNC(=O)N1CCN2C(=O)CN(C)C(=O)C2C1 (stereo not drawn) | 1.8 | 2.9 |
| CCN(Cc1csc(C)n1)C(C)c1cccc(O)c1 (stereo not drawn) | -4.5&6.2 | -2.7&11.1 |
| Cc1cc(Nc2cccc(C(F)(F)F)c2)n2ncc(C#N)c2n1 | 7.6 | 10.1 |
| CC1Cc2c(NC(=O)Cc3cccs3)nn(C)c2NC1=O (stereo not drawn) | -21.7 | -15.9 |
| CS(=O)(=O)N1CCCN(C(=O)c2ccccc2C(=O)c2ccccc2)CC1 | -3.5 | -1.6 |
| COc1ccc(CNC(=O)Cn2nc3c(c2NC(=O)c2c[nH]c4ccccc24)CSC3)cc1 | 0.5 | -2.3 |
| COc1cc(Br)cc(/C=N\NC(=O)CCC(=O)Nc2ccc(Cl)cc2C)c1O | 12.3 | 6.0 |
| CCOC(=O)N1CCN(C(=O)CCc2ccc(-c3ccc(OC)cc3)n2-c2ccc(SC)cc2)CC1 | -1.6 | -2.2 |
| Cn1c2c(c(=O)n(C)c1=O)C(c1cccc(C(F)(F)F)c1)C1=C(N2)c2ccccc2C1=O (stereo not drawn) | 0.4 | 3.3 |
| CSc1nnc2c(n1)OC(c1ccc(OCc3ccccc3)cc1)Nc1ccccc1-2 (stereo not drawn) | -6.5 | -5.0 |
| Cn1c(NC(=O)c2cccc(F)c2)cc(=O)n(C)c1=O | 11.6 | 10.0 |

Entries above that have a COOH group, in the order listed:
| Molecule | NPYLR7 agonist max-min | NPYLR7 agonist |
| --- | --- | --- |
| O=C(O)c1cc(-c2ccccc2O)nc2nc(-c3ccccc3)[nH]c12 | -2.6 | -2.3 |
| CN1C(=S)N(c2ccc(Oc3ccccc3)cc2)C(=O)/C1=C\c1ccccc1OCC(=O)O | 20.9 | 23.4 |
| C#Cc1cccc(N(CC)S(=O)(=O)c2ccc(C(=O)O)cc2)c1 | 16.0 | 0.4 |
